# High-throughput results as filed in PubChem.
# Cruzain inh noDet: inhibitors of Trypanosoma cruzi cruzain without detergent | Potency, µM, for the others: max response, negative = inhibition, most hits filed as inhibitors | hit rate 2.3% among 200,000 | purified cruzain, Z-FR-AMC fluorescence, no detergent | AID 1476;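 also: plate controls were enzyme without inhibitor for no effect and buffer without enzyme for full effect; nearly all actives have a fitted effect of over 40% in size; top concentration of the series not given in the record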
# Target sequence (P25779 123-467 limits assumed): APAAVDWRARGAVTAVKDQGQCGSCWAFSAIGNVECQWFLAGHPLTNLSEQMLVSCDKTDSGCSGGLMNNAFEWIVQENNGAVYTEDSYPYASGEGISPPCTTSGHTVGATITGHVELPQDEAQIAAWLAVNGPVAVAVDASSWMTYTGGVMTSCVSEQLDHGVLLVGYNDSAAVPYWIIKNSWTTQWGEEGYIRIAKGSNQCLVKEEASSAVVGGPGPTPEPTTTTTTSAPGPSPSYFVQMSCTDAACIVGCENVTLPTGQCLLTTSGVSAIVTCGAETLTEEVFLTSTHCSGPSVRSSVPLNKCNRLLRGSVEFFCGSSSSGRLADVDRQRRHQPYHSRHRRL
#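 Detergent-free condition (0.00005% Triton X-100) in acetate buffer pH 5.5 with DTT. 1.5 nM enzyme and compound were pre-mixed 15 min, then 2 uM Z-FR-AMC substrate added; reaction progress from fluorescence change between first and third reads (60 s).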
# NS1 inh: inhibitors of influenza NS1 protein function. S. cerevisiae slowed by influenza A NS1, growth recovery by OD600. Potency, µM (highest dose often 46.1 µM), for inactives: at the highest dose activity, positive = more growth. hit rate 0.4% among 270,000. AID 2326; active means well fitted rising curve with a large enough effect; inconclusive means small, poorly fitted or top-dose-only effect; inactive means no such curve, though single readings can be large or run the other way; also: nearly all actives have a fitted effect of over 50% in size
#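 Compounds were scored for reversing the slow growth caused by influenza A NS1 in S. cerevisiae, measured by optical density at 600 nm. Assay medium contained 2% galactose at pH 6.0; NS1-free yeast of the same strain were the positive control.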
# Cruzain Triton: blocks cruzain activity in presence of Triton detergent; purified cruzain, Z-FR-AMC fluorescence, 0.01% Triton; Potency, µM, for the others: max response, negative = inhibition, actives largely listed as inhibitors; hit rate 0.43% among 200,000;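 also: plate controls were neutral wells for no effect and buffer without enzyme for full effect; nearly all actives have a fitted effect of over 40% in size; top concentration of the series not given in the record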
#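 Detergent-containing run (0.01% Triton X-100) in acetate buffer pH 5.5 with 5 mM DTT: enzyme at 1.5 nM final, 15 min compound preincubation at room temperature, then 2 uM Z-FR-AMC substrate. Activity taken as 60 s fluorescence increase at 360/450 nm.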
# * = called active by the depositor; ? = inconclusive; & = joins results of further samples. Unless noted, calls follow the shape of the dose curve; as a rule, active = well fitted curve in the direction sought with a large enough effect; inconclusive = small, poorly fitted or top-dose-only effect, or another doubt; inactive = no such curve, though single readings can be large; an effect the other way counts as inactive or inconclusive. Potency is read from the fitted curve at half-maximal effect. Some of the compounds tested, so the mix of outcomes need not match the whole.
SMILES,Cruzain inh noDet,NS1 inh,Cruzain Triton
CC(C)(C)c1ccc(O)c(CN(Cc2cc(C(C)(C)C)ccc2O)C2CCCCC2)c1,3%,-8%,2.1%
O=C(O)c1cc2ccccc2c(S(=O)(=O)O)c1O,12%,0%,-0.8%
O=CNc1ncn[nH]1,-5%,-1%,-2.4%
c1c[nH]c(CN2CCOCC2)n1,3%,-2%,-0.6%
CC(=O)[C@H](C(=N)C#N)C(=O)Nc1ccccc1,8%,6%,0.6%
Cn1cnc([N+](=O)[O-])c1Sc1nc(N)nc2c1ncn2[C@H]1C[C@H](O)[C@@H](CO)O1,15%,10%,5.0%
O=C(Nc1c[nH]c(=O)[nH]c1=O)Oc1ccccc1,-3%,17%,3.6%
N[C@@](CCc1ccccc1)(C(=O)O)c1ccccc1,0%,-7%,4.6%
CN(CCO)Cc1ncccc1O,4%,-4%,-3.2%
Cc1ccc2nc(CC(=O)c3ccc4ccccc4c3)c(=O)[nH]c2c1,-25%,-9%,4.6%
CC(C)(C)c1ccc(OCC(=O)O)c(Cl)c1,12%,6%,1.6%
CC(C)(C)c1ccc(O)c(C[N+](C)(C)C)c1,8%,-3%,1.7%
C[C@@]12C[C@H](O)C3[C@H](CCC4=CC(=O)CC[C@]43C)[C@H]1CC[C@@H]2c1csc(-c2ccccc2)n1 (stereo partly drawn),-7%,-5%,1.8%
N[C@H]1[C@@H](C(=O)O)[C@H]2C=C[C@H]1C2,10%,-12%,7.9%
C[N+]1([C@H](CO)Cc2c[nH]c3ccccc23)Cc2ccccc2C1,-1%,-8%,1.1%
O=C(O)/C=C\C(=O)Nc1ccccn1,6%,-7%,-5.1%
O=[N+]([O-])/C=C\c1cc2ccccc2[nH]1,4%,-40%,3.6%
O=C(O)c1nn(-c2ccc(Cl)cc2)c2c1C(=O)c1ccccc1C2=O,1%,6%,1.8%
Cc1[nH]c(C)c(CN(C)C)c1CN(C)C,-6%,-5%,0.1%
CN(C)c1ccc(C(=C2C=CC(=[N+](C)C)C=C2)c2c(O)c(S(=O)(=O)O)cc3cc(S(=O)(=O)O)ccc23)cc1,-5%,-3%,-2.1%
C#CCOC(=O)[C@H](N)CC(N)=O,7%,3%,8.3%
CC(=O)[C@@]1(N=Nc2ccc(S(N)(=O)=O)cc2)CCOC1=O,1%,4%,2.0%
O=C(O)c1ccc([N+]2=Cn3c(nc4ccccc43)C2)cc1,3%,0%,-7.1%
O=C(O)C(=O)Cc1ccc2c(c1)OCO2,-2%,6%,2.5%
CC1CCN(CC[S-])CC1.O.O.[Cl][Pt],-6%,5%,3.5%
COc1ccc2c(Cl)cc(NC(=S)Nc3ccccc3)nc2c1,-9%,-5%,-0.6%
Cc1cc(Cc2cc(Cc3cc(C)cc(C(C)(C)C)c3O)c(C)cc2C)c(O)c(C(C)(C)C)c1,-29%,3%,-7.4%
[N-]=[N+]=NCC(=O)c1c[nH]c(=O)[nH]c1=O,0%,-10%,4.2%
N[C@@H]1[C@@H]2[C@@H]3C[C@H]4N(CC[C@@]14C(=O)C(=O)O)CC3=CCO[C@@H]2CC(=O)O,3%,3%,1.0%
CC(C)(C)OC(=O)[C@H](C1N[C@@H](C(=O)O)C(C)(C)S1)N1C(=O)c2ccccc2C1=O (stereo partly drawn),22%,-1%,4.4%
c1cncc(-c2cc(-c3cc(-c4cccnc4)n[nH]3)[nH]n2)c1,-3%,22%,-11%
Cc1cc(Cl)ccc1OCC(=O)Oc1c(Cl)c(Cl)c(Cl)c(Cl)c1Cl,-21%,-57%,-3.7%
O=C1c2ccccc2-c2ccc(N=[N+]([O-])c3ccc4c(c3)C(=O)c3ccccc3-4)cc21,1%,-3%,0.4%
O=S(=O)(NCCO)c1cc[c]([Sb])cc1,-7%,-6%,0.8%
N=C(N)SC(c1ccccc1)c1ccccc1,-2%,-6%,-0.5%
O=C1C2[C@@H](c3ccccc3)N[C@@H](c3ccccc3)C1[C@H](c1ccccc1)N[C@H]2c1ccccc1,-7%,0%,3.6%
C[C@@H]1CCCN(CP(=O)(c2ccccc2)c2ccccc2)C1,2%,3%,3.3%
Nc1[nH]c(=O)nc2c1ncn2[C@H]1O[C@@H](CO)[C@@H](O)[C@@H]1O,4%,0%,5.0%
CN(C)CC(CN(C)C)c1ccccn1,12%,-3%,-3.5%
Clc1ccc2c(c1)N(CCCN1CCCC13CCCCC3)c1ccccc1S2,7%,-8%,-0.6%
COc1cc(NCC[C@@H]2CCCCN2)c2ncccc2c1,-2%,2%,3.3%
CO[C@@H](NC(N)=O)C(=O)O,-5%,5%,5.2%
Cc1ncc(COP(=O)(O)O)c(C)c1O,-1%,-3%,5.1%
O=C(O)[C@@H](O)[C@@H](O)[C@@H](O)[C@@H](O)c1nc2ccccc2s1,-1%,-32%,-3.9%
O=C(O)C[C@H]1OCC=C2C[N@@+]3([O-])CC[C@]45c6ccccc6N[C@@H]4[C@@H]1[C@H]2C[C@H]53,1%,0%,5.9%
COc1cc2c(cc1OC)[C@]13CC[N@+]4(C)CC5=CCO[C@H]6CC(=O)N2[C@@H]1C6[C@@H]5C[C@]34O (stereo partly drawn),-4%,4%,2.1%
O=C1C[C@@H]2OCC=C3CN4CC[C@]56c7ccccc7N1[C@@H]5[C@@H]2[C@H]3C[C@H]46 (tested in a mixture with another compound),-1%,-6%,-3.5%
Cc1ccc(S(=O)(=O)N2CCC(C(=O)O)(c3ccccc3)CC2)cc1,-6%,-11%,-1.9%
Cc1c([C@@H](C)C2NC[C@H](C)C[C@@H]2O)ccc2c1C[C@@H]1[C@H]2CC=C2C[C@@H](O)CC[C@@]21C (stereo partly drawn),-5%,-3%,1.1%
Cn1c(=O)c2c(ncn2CN2CCN(Cn3cnc4c3c(=O)n(C)c(=O)n4C)CC2)n(C)c1=O,4%,-8%,9.1%
O=C(O)CCNc1ncnc2nc[nH]c12,3%,4%,3.4%
Cc1cc2ccc(OC(=O)c3ccc(N=C(N)N)cc3)cc2oc1=O,5%,13%,3.8%
C[C@]12CC[C@@H]3[C@H](CCC4=CC(=O)CC[C@]43C)[C@]1(O)CC[C@@]2(O)C(=O)CO,0%,0%,0.2%
C[C@H]1CCCC2(CC[N+](C)(CCC[N+](C)(C)C)CC2)C1 (stereo partly drawn),2%,-5%,6.1%
Cc1ccc(O)cc1 (tested in a mixture with another compound),5%,19%,7.7%
O=C(O)CCc1nc(-c2ccccc2-n2cccc2)no1,-7%,?,7.1%
COc1cc(C)cc(OC)c1/C=C\C(=O)O,7%,-8%,1.0%
O=C(CCN1CCOCC1)Nc1ccc(F)cc1F,0%,-4%,11%
O=C(O)CC[P+](c1ccccc1)(c1ccccc1)c1ccccc1,-1%,-2%,-4.4%
CC1(CCC(=O)OC2CCCCC2)OCCO1,11%,0%,-0.9%

# Two neighbouring compounds out of the list so far, quoted:
SMILES,Cruzain inh noDet,NS1 inh,Cruzain Triton
CC(C)(C)c1ccc(O)c(CN(Cc2cc(C(C)(C)C)ccc2O)C2CCCCC2)c1,3%,-8%,2.1%
O=C(O)c1cc2ccccc2c(S(=O)(=O)O)c1O,12%,0%,-0.8%

# Continued.
SMILES,Cruzain inh noDet,NS1 inh,Cruzain Triton
CN1CCN(CCCNN)CC1,3%,2%,5.5%
Cc1c(C)c(C)c(CC2(C)CSC2)c(CC2(C)CSC2)c1C,-3%,-7%,-7.1%
N=C(N)c1ccc(-c2ccc(-c3ccc(C(=N)N)cc3)o2)cc1,-6%,-37%,-8.4%
COc1ccc(C(=O)CCN(C)C)c2ccccc12,?,-8%,-25%
CC(=NCC(=O)O)c1ccccc1,9%,1%,-1.2%
O=C(O)C[C@H]1NCc2cc3ccccc3nc21,-19%,-1%,2.2%
CC(C)CN(CC#N)CC(C)C,3%,3%,5.1%
C(/C=C\c1ccccc1)=Nc1ccc2c(c1)Cc1ccccc1-2,4%,-1%,2.1%
N=C(N)SCc1cccc2c(=O)cc(-c3ccccc3)oc12,-3%,14%,-3.7%
[O-][n+]1c(CN2CCCCC2)nc2cccc3c2c1-c1ccccc1-3,-12%,?,1.1%
NC(=O)NOC[C@@H]1NC(=O)NC1=O,7%,0%,-0.6%
NS(=O)(=O)c1ccc(N=Nc2nc3[nH]cnc(=S)c3[nH]2)cc1,6%,8%,8.8%
CC(C)c1ccccc1S(=O)c1ccccc1C(C)(C)O (stereo not drawn),-1%,-6%,5.1%
Cn1c(Sc2ccc(-c3cccnc3)n2C)ccc1-c1cccnc1,-8%,-4%,-11%
COc1ccc(C(=O)N/N=C2/C(=O)c3c(C)cc(C)cc3CC2(C)C)cc1,-1%,0%,0.4%
Cc1ncc(CSc2ccccc2N)c(CO)c1O,6%,6%,4.7%
C[N+]1(CCC[N+]2(C)C[C@H]3[C@H](C2)[C@H]2C=C[C@@H]3CC2)CCOCC1 (stereo partly drawn),10%,5%,-0.5%
Nc1ncnc2nc(N3CCN(CCO)CC3)[nH]c12,0%,0%,-1.2%
O=C(O)c1ccccc1C(=O)Nc1cc2c(cc1Br)-c1ccccc1C2=O,-9%,-3%,-0.9%
Clc1ccc(CSCCc2ccncc2)cc1Cl,2%,-31%,-5.4%
N#CC(=NCCO)C1=C(O)c2ccccc2C1=O,-2%,-8%,2.1%
O=C(N[C@@]1(C(=O)O)C[C@@H]1c1ccccc1)c1ccccc1,12%,-5%,-3.4%
O=S(O)O.O=S(O)O.[Co].[NH2-].[NH2-].[NH2-].[NH2-],10%,-1%,3.9%
O=S(=O)(O)[C@@H](CO)c1ccccc1 (tested in a mixture with another compound),2%,-8%,4.0%
Ic1ccc2c(c1)N(c1ccccc1)c1cc(Nc3ccc4nc5ccc(I)cc5[n+](-c5ccccc5)c4c3)ccc1N2,3.2µM*,5%,-1.6%
CC(=O)Nc1ccccc1C=C1c2ccccc2-c2ccccc21,3%,-3%,-0.2%
CSC(=[SH+])N=N/C(=C1/C=CC=CN1)c1ccccn1.[Cu][Br],0%,21%,0.2%
CC(C)(CCC(C)(C)c1ccccc1)c1ccccc1,1%,0%,-0.8%
CCCn1cnc2c(SCC(=O)O)nc(N)nc21,13%,-3%,4.4%
CN1[C@@H](c2ccccc2)CC(=NO)C[C@H]1c1ccccc1,-7%,-6%,1.0%
Cc1cc2nc3[nH]c4c(Cl)cc(Cl)cc4c3nc2cc1C,4%,3%,0.7%
O=c1c2ccccc2c2ccccc2c(=O)n1-c1cc2c3ccccc3ccc2c2ccccc12,-25%,?,-18%
c1cc(CSc2ncnc3nc[nH]c23)ccn1,3%,-3%,1.6%
CC(=O)OC1=CC2=CC[C@H]3[C@H]4CCC(=O)[C@@]4(C)CC(=O)[C@]3(S)[C@]2(C)CC1,-2%,0%,-3.7%
CN(C)CCCN1c2ccccc2C(C)(C)c2ccccc21,6%,-4%,1.2%
CC(C)CNC(=O)O,-2%,-1%,0.4%

# Exported as labelled records: entries from further up
> CC(=O)Nc1ccccc1C=C1c2ccccc2-c2ccccc21
  Cruzain inh noDet = 3%; NS1 inh = -3%; Cruzain Triton = -0.2%
> CSC(=[SH+])N=N/C(=C1/C=CC=CN1)c1ccccn1.[Cu][Br]
  Cruzain inh noDet = 0%; NS1 inh = 21%; Cruzain Triton = 0.2%
> CC(C)(CCC(C)(C)c1ccccc1)c1ccccc1
  Cruzain inh noDet = 1%; NS1 inh = 0%; Cruzain Triton = -0.8%
> CCCn1cnc2c(SCC(=O)O)nc(N)nc21
  Cruzain inh noDet = 13%; NS1 inh = -3%; Cruzain Triton = 4.4%

# Later entries.
SMILES,Cruzain inh noDet,NS1 inh,Cruzain Triton
O=C(O)C1=C/C(=C(/c2ccccc2)c2cc(C(=O)O)c(O)c3ccccc23)c2ccccc2C1=O,?,8%&0%,-0.9%&-2.2%
N=C(N)SCCCN,-5%,2%,0.3%
NC(CSS(=O)(=O)O)=N[C@@H]1C[C@H]2CC[C@@H]1C2,6%,1%,2.3%
Cn1c(=O)c2[nH]c(CCS)nc2n(C)c1=O,-2%,-4%,4.7%
OC[C@@H]1O[C@@H](O)[C@H](N=Cc2ccc3c(c2)OCO3)[C@@H](O)[C@@H]1O,2%,1%,0.9%
N#C[C@H](C(=O)O)C(c1c(Cl)cccc1Cl)[C@H](C#N)C(=O)O,1%,6%,1.9%
N[C@@H](CSc1nc2ccccn2c1[N+](=O)[O-])C(=O)O,-3%,19%,2.2%
O=C1[C@H]2[C@H]3C=C[C@@H](C4[C@H]3[C@@H]3C(=O)N(CN5CCSCC5)C(=O)[C@H]43)[C@H]2C(=O)N1CN1CCSCC1 (stereo partly drawn),5%,5%,-0.3%
Nc1c(S(=O)(=O)O)cc(Nc2cccc(S(N)(=O)=O)c2)c2c1C(=O)c1ccccc1C2=O,17%,-5%,-6.8%
NCc1ccc(C(=O)O)cc1,2%,0%,12%
NCOC(=O)Cc1ccc(Br)cc1,-1%,-6%,4.4%
O=C(O)C1(C(=O)O)CCN(S(=O)(=O)c2ccccc2)CC1,-7%,-4%,5.6%
